VCAM-1 rise: enhancers of VCAM-1 display on endothelial cells, cell-based, plate reader, pooled HUVEC, TNFa stimulus (AID 455); 0.2% of 10,000 active; HUVEC TNFa-induced VCAM-1 immunofluorescence, plate reader; numbers were filed only for top-ranked candidate wells; augmentation, % at 5 µM;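 active = a compound raising TNF-alpha-driven VCAM-1 surface staining, with its hit status upheld on visual or statistical review; inactive = the rest, including hits rejected on review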;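 also: 0% = TNFa with vehicle and 100% = strongest image-checked hit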
26S disassembly: inhibitors of ATP-driven 26S proteasome dissociation, primary screen, biochemical, bead-based flow cytometry, GFP-tagged proteasome | inhibition of disassembly, % (test concentration not listed) | 0.2% of 24,000 active | anti-FLAG beads, GFP-proteasome disassembly;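 active = above 40%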;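 also: plate controls were ATP control with full disassembly for no effect and ATP-gamma-S intact proteasomes for full effect; higher percent means more bead fluorescence retained so stronger block of disassembly; stock transfer was 100 nL into about 10 µL; wells with too few beads may also be inconclusive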
Numbers without * were called inactive; i = inactive; . = not tested or not shown. Only part of the results is shown. The share of hits here may be higher or lower than overall.

VCAM-1 rise	26S disassembly	structure
.	0.2	Cc1nc2c3c(-c4ccccc4)nc(N4CCOCC4)nc3nn2c(C)c1CCC(=O)O
.	-1.0	Cc1cc(NC(=O)CSc2nnc(-c3ccc(Cl)s3)o2)no1
.	-3.1	CCOC(=O)C1=C(C)Nc2nc(C)nn2C1c1cc(OC)ccc1OC (stereo not given)
i	0.1	Cc1ccc(C(=O)Nc2ccc3c(c2)OCO3)cc1S(=O)(=O)N1CCCC1
i	0.3	O=C(CSc1nc2ccccc2s1)N1CCN(C(=O)c2ccco2)CC1
i	-0.4	CC(C)C(=O)Nc1ccc(C(=O)NCc2cccnc2)cc1
.	-0.4	O=C(CSc1nc2ccccc2c(=O)[nH]1)N1CCOCC1
i	11.2	CC(C)(C)NC(=O)NC(=O)COc1ccccc1C#N
i	1.3	CCn1c(SCC(=O)Nc2nnc(C)s2)nnc1-c1ccncc1
.	-2.4	Cc1ccc(S(=O)(=O)N2CCN(S(C)(=O)=O)C2)cc1
.	-0.2	CCOc1ccccc1C1C(C(N)=O)=C(C)Nc2nc(-c3ccc(OC)cc3)nn21 (stereo not given)
i	-0.4	COCCNS(=O)(=O)c1cc(F)ccc1OC
i	0.1	COc1cccc(Oc2cnc(N)nc2-c2ccc(OC)cc2O)c1
i	0.9	CCCCn1c(SCc2ccc(Cl)cc2)nc2c1c(=O)[nH]c(=O)n2C
.	0.3	Nc1ccc(CN2CCN(c3ccc4ccccc4n3)CC2)cc1
.	0.7	O=C(NCc1cccnc1)C1CC(=O)N(C2CCCCC2)C1 (stereo not given)
.	-0.3	CCOCCCNC(=O)C(NC(=O)C1CCC(=O)N1)c1ccc(C)cc1 (stereo not given)
i	1.0	O=C(CSc1nc(-c2ccco2)cc(C(F)(F)F)n1)N1CCCc2ccccc21
.	-1.0	COc1ccc(C2=CC(c3sccc3C)n3nnnc3N2)cc1 (stereo not given)
.	-0.1	CC12C(=O)N(c3ccccc3C(=O)O)C(=O)C1C1C=CC2C1 (stereo not given)
.	-0.1	Cc1cccc(N=c2oc3cc(O)ccc3cc2C(N)=O)c1
.	0.3	O=C(c1ccc2c(=O)n(Cc3ccco3)c(=S)[nH]c2c1)N1CCN(c2ccccc2)CC1
i	0.8	CC1Oc2ccccc2N(CC(=O)NCc2cccs2)C1=O (stereo not given)
i	0.7	N#Cc1c(N)nc2c(c1-c1ccncc1)CCCCC2
i	-5.1	CCc1cc2c(=O)c(-c3cscn3)coc2cc1O
.	3.9	CN(C)c1ccc(C2N(C(=O)N3CCOCC3)CCN2S(=O)(=O)c2ccccc2)cc1 (stereo not given)
i	0.2	CNCCCC12CCC(c3ccccc31)c1ccccc12
i	1.3	O=C(C1CCC(N2C(=O)C3CC=CCC3C2=O)CC1)N1CCCCC1 (stereo not given)
.	1.0	CCOC(=O)C1=C(C)NC(=O)NC1c1ccc(OCC(=O)N2CCCCC2)cc1 (stereo not given)
.	-0.4	COCCCn1c(=S)[nH]c2ncccc2c1=O
i	-0.4	Cc1ccc(OCCC(=O)OCC(=O)C(C)(C)C)cc1
.	0.3	O=C(Cn1cnc2c(nnn2-c2ccc(F)cc2)c1=O)NCC1CCCO1 (stereo not given)
i	-1.4	Cc1onc(-c2ccccc2)c1C(=O)N1CCN(C(=O)c2ccco2)CC1
42.9*	17.6	CN(C)c1ccc(/C=C/c2ccncc2)cc1
.	1.3	Cc1cccc(Cn2cnc3c(nnn3Cc3ccc(Cl)cc3)c2=O)c1
.	-1.0	COc1ccc(-n2c(=O)[nH]cc(C(=O)N3CCCc4ccccc43)c2=O)cc1
i	0.6	CCCNS(=O)(=O)c1ccc(OCC(=O)NCc2ccc3c(c2)OCO3)cc1
i	0.8	CN(Cc1cccs1)CC(O)COCc1ccco1 (stereo not given)
.	-1.1	CCC(=O)N1c2ccccc2-c2nnc(SC)nc2OC1c1ccc(OC)c(OC)c1 (stereo not given)
i	-0.4	Cc1cc(C)c2nc(C(F)(F)F)nc(NCCCN3CCCC3=O)c2c1
i	-2.5	Cc1ccc(-n2c(-c3ccncc3)nnc2-c2cccs2)cc1
.	-2.1	O=C1c2ccccc2NC(c2ccc(Cl)cc2Cl)N1O (stereo not given)
.	0.1	CC(C)C1N=C2c3ccccc3N=C(SCC#N)N2C1=O (stereo not given)
.	1.4	COc1ccccc1N1CCN(C(=O)c2sc3nc(-c4ccccc4)cn3c2C)CC1
.	1.2	COCc1cc(C)nc2sc(C(=O)Nc3nccs3)c(N)c12
.	-3.5	O=C(NCCN1C(=O)C2C3C=CC(C3)C2C1=O)Nc1ccccc1 (stereo not given)
i	-1.0	O=C(NCC(=O)N(CCc1ccccc1)C(C(=O)NC1CCCC1)c1cccnc1)c1ccco1 (stereo not given)
.	0.2	O=C(CSc1nnc(-c2ccc(Cl)s2)o1)N1CCc2ccccc21
.	0.1	CCOc1ccc(-n2c(SCC(=O)Nc3ccc4c(c3)OCCO4)nc3c(c2=O)SCC3)cc1
.	0.7	Cc1ccc(-c2nc(C#N)c(N3CCCCC3)o2)cc1
.	-0.3	CCCCN(C)C(=O)Cn1cnc2sc(C)cc2c1=O
i	0.2	COc1ccc(Cc2nc(-c3ccc(NC(=O)c4cccnc4)cc3)no2)cc1
i	0.1	CCOC(=O)/C=C1\CC(=O)Nc2nonc2N1
i	0.7	Cc1coc2cc3oc(=O)c4c(c3cc12)CCC4
.	0.6	O=C(NCCCN1CCN(c2ccccc2F)CC1)C1CCCN(S(=O)(=O)c2cnc[nH]2)C1 (stereo not given)
.	-0.1	COc1ccc(-c2nc(C#N)c(NCCN(C)C)o2)cc1
i	-2.3	O=C(NCc1cccs1)C1CC(=O)N(c2ccccc2)C1 (stereo not given)
i	2.5	CCN(CC)CCN1C(=O)C(O)=C(C(=O)c2ccco2)C1c1ccccn1 (stereo not given)
i	-1.2	O=C1c2ccccc2NC2CCCCCN12 (stereo not given)
.	4.0	O=C1c2ccccc2C(=O)C1c1nccc2ccccc12

Following part
VCAM-1 rise	26S disassembly	structure
.	0.6	Cn1c(=O)c2c(nc(N3CCCCC3)n2CCNC2=NCCC2)n(C)c1=O
i	0.9	CCOC(=O)CNC(=O)CSc1nc(N)cc(N)n1
.	0.3	COC(=O)c1cc2sccc2n1Cc1ccc(C)cc1
.	1.0	CN1CCc2c(c3ccccc3n2Cc2ccccc2)C1
i	0.9	Cn1c(CN2CCCCC2)nc2cc(NC(=O)c3ccccc3)ccc21
i	-1.0	CCCS(=O)(=O)N1CCC(C(=O)N2CCCC2)CC1
i	0.2	O=C(NCc1ccco1)Nc1ccc2nsnc2c1
i	0.2	Cc1ccccc1NC(=O)CSc1nc(N)c(C#N)c(-c2cccs2)c1C#N
i	-2.4	CCOC(=O)N1CCC(NC(=O)Cc2ccc(-n3c(=O)[nH]c4ccccc4c3=O)cc2)CC1
i	-2.3	Cc1nc2ccccc2cc1C(=O)NCc1ccco1
i	3.8	CC(=O)c1ccc(NC(=O)CSc2nnc(-c3ccoc3C)n2Cc2ccccc2)cc1
.	-0.5	CC(C)OCCCn1c(=S)[nH]c2ncccc2c1=O
.	-0.5	CSC1=NCCN1C(=O)c1cccc(Br)c1
.	-1.0	COc1ccc(-c2nc(SC)n(C)c(=O)c2C#N)cc1OC
.	-0.9	Cn1c(=O)oc2cc(S(=O)(=O)N3CCN(Cc4ccc5c(c4)OCO5)CC3)ccc21
.	1.8	CC(C)(C)C1CCc2onc(C(=O)Nc3cccnc3)c2C1 (stereo not given)
.	1.9	COc1cc(N=c2ssnc2Cl)cc(OC)c1OC
.	-2.4	CCCC1(C(=O)O)NC(c2cccc(OC)c2O)C2C(=O)N(c3ccccc3)C(=O)C21 (stereo not given)
i	3.6	O=C(CNCC1CCCO1)Nc1ccccc1-n1cccc1 (stereo not given)
.	3.0	Cc1cc(=O)c2ccccc2[nH]1
.	0.5	CCn1c(=O)c(=O)n(CC)c2cc(S(=O)(=O)Nc3cccc(OC)c3)ccc21
.	-1.2	Cc1cc(C)c(S(=O)(=O)Nc2cccc3nsnc23)c(C)c1
.	0.1	COc1ccc(C2=NOC(C(=O)NCc3ccccc3)C2)cc1 (stereo not given)
.	-0.3	CCOC(=O)CNC(=O)C1c2cc(OC)c(OC)cc2C(=O)N(C)C1c1ccccc1F (stereo not given)
.	0.3	COc1ccc(C2C(C(N)=O)=C(C)Nc3nc(-c4cccc(Cl)c4)nn32)cc1OC (stereo not given)
.	1.7	O=C(CSc1nc2ccncc2[nH]1)Nc1ccccc1C(F)(F)F
i	3.1	Cn1c(=O)n(C)c2cc(NC(=O)C(F)(F)F)ccc21
i	-4.5	Cc1ccc(Cl)cc1N1CCN(C(=O)c2cn(C)c(=O)c3c2c2ccccc2n3C)CC1
i	-0.2	COc1ccccc1CCNC(=O)C1CCCO1 (stereo not given)
i	4.3	Cc1ccc(S(=O)(=O)N2CCCC2C(=O)OCc2nc3ccccc3s2)cc1 (stereo not given)
.	-1.0	NC(=O)C1(N2CCCCC2)CCN(C(=O)c2cccs2)CC1
i	5.1	CCSc1nc(-c2ccc(OC)cc2)ccc1C#N
.	1.5	Cc1cc(Nc2ccccc2F)n2nc(C)nc2n1
.	-0.3	O=C(Nc1ccc(F)cc1)N1CCn2c(nc3ccccc32)C1
i	-1.2	Cc1nc2ccccc2c2c1C(=O)N(CCC1=CCCCC1)C2=O
.	13.9	Cc1ccc(-c2nc(CS(=O)CC(=O)NCc3ccccn3)c(C)o2)cc1 (stereo not given)
i	1.8	Cc1c(C(=O)NCc2ccccn2)oc2ccccc12
i	0.5	Cc1ccc(S(=O)(=O)N(CC(=O)N2CCOCC2)CC(=O)N2CCOCC2)cc1
i	0.7	CC(C)CC(=O)Nc1ccccc1-c1nnn(CC(=O)N2CCOCC2)n1
.	-0.1	NC(=O)CN1CCN(C(=O)Nc2ccccc2)CC1
.	-1.0	Cc1ccccc1-n1c(=O)cc(N2CCc3ccccc3C2)[nH]c1=O
i	0.1	CCOC(=O)Nc1c(C(=O)OC)[nH]c2cccc(OC)c12
.	0.6	CCCCNC(=O)c1sc2nc(C)cc(COC)c2c1-n1cccc1
.	-0.6	CC(C)OC(=O)c1nnn(-c2nonc2N)c1CN1CCCCCC1
